ClpP mod = qHTS Assay for Activators of ClpP; ATP-dependent Clp protease proteolytic subunit (Bacillus subtilis (strain 168)), P80244; purified B. subtilis ClpP, FRET peptide cleavage, 20 min; Potency, µM (series often up to 57.5 µM), without a hit: at the highest dose activity change, negative = active; 340,000 tested, 1.9% active; active = well fitted falling curve with a large enough effect; inconclusive = small, poorly fitted or top-dose-only effect; inactive = no such curve, though single readings can be large or run the other way; further: potency means the concentration at half of the fitted maximal effect; the source files actives as falling curves though it sought activators and does not explain the sign; nearly all actives have a fitted effect of over 65% in size; many hits overshoot -100%
Target sequence (P80244 whole entry, looked up): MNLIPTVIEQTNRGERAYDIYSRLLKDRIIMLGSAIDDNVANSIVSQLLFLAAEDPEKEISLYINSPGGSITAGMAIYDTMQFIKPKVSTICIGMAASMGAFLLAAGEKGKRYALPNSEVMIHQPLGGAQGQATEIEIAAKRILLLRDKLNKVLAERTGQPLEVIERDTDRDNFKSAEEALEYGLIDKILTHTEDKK
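FRET quenching reversal measured ClpP activation: 10 microg/mL B. subtilis ClpP at pH 8 with the FRET-FV decapeptide, read at 430 nm after 320 nm excitation. The 20-min minus 0-min signal was scaled between DMSO/no-enzyme wells and ADEP (5.8 microM final).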
PINK1 expr mod = modulators of PINK1 expression | PINK1 immunofluorescence, high-content cytometry, 24 h | Potency, µM (series often up to 76.6 µM), inactives show at the top dose activation (PINK1 increase), usual class: activators | 410,000 tested, 0.2% active | AID 624263; active = well fitted activation curve with a large enough effect; inconclusive = small, poorly fitted or top-dose-only effect; inactive = flat fitted curve, though single readings scatter; cell line not stated here;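 further: potency means the concentration at half of the fitted maximal effect; % of control where 0% means no effect; nearly all actives have a fitted effect of over 65% in size; a mitochondrial uncoupler was the plate control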
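Measures PINK1 amount and localization on or inside mitochondria by immunofluorescence. Stable cells get compounds at 5 concentrations for 24 hours before fixation and staining; CCCP controls included.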
Menin-MLL FL inh = displaces fluorescein MLL peptide from human menin; Fluorescence polarization, fluorescein-MLL peptide displacement from menin; FP activity change, % at 61.4 µM; 290,000 tested, under 10 active; AID 1766; inconclusive = falling polarisation curve, or a change in total fluorescence; inactive = total fluorescence flat and polarisation flat or rising; no compound was filed as active; the % refers to the polarisation; negative = inhibition;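 further: % of control where 0% means no effect; inhibitors lower the polarisation; unlabelled MLL peptide was the positive control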
TRPML1 agonist = human mucolipin-1 channel agonism; 410,000 tested, 0.12% active; Q9GZU1; TRPML1-expressing cells, Ca2+ dye fluorescence, FDSS; host cell line not named in the record; reference of the full effect not given here; activation, % (test concentration not listed); in the data active = activation above about 50%; inconclusive = about 30% to 50%; inactive = below about 30%; further: 0% is about no effect; the text of the record puts the active cut at 80%
Target sequence (Q9GZU1 whole entry, looked up): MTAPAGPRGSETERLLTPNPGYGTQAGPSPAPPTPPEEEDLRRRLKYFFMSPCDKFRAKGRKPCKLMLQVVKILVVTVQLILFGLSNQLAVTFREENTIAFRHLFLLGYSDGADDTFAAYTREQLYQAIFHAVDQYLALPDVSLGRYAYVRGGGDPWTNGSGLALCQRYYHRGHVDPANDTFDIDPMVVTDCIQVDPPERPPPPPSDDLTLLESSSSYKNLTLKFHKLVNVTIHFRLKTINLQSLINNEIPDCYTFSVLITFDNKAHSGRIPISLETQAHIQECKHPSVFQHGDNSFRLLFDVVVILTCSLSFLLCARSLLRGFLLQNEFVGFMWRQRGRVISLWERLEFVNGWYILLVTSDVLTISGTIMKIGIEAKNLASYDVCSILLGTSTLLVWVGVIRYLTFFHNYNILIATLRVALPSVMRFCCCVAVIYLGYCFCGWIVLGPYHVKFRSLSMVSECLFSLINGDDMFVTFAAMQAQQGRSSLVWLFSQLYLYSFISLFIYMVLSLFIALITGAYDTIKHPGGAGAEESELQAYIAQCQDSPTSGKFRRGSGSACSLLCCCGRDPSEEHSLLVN
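In this qHTS format, compounds were pin-transferred onto Ca8-dye-loaded TRPML1-DL cells induced with Tet overnight, and intracellular Ca2+ fluorescence was recorded kinetically for 110 s after a 10 s baseline. A subsequent 4uM final 54-4 (EC80) addition followed by a second 110 s read served as the antagonist phase.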
Sfp inh = Sfp phosphopantetheinyl transferase inhibition; Q9F4F7; Biochemical Sfp PPTase activity, qHTS; Potency, µM, for the others: max response, negative = inhibition, most hits filed as inhibitors; 310,000 tested, 3.5% active; AID 1490; active means well fitted inhibition curve with a large enough effect; inconclusive means small, poorly fitted or top-dose-only effect, or another doubt; inactive means no such curve, though single readings can be large or run the other way;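 further: the enzyme is Sfp with the accession as filed and its product quenches rhodamine fluorescence; potency means the concentration at half of the fitted maximal effect; 0% = enzyme reaction without inhibitor and -100% = no enzyme wells; top concentration of the series not given in the record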
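After 15 min at room temperature with compound, 15 nM Sfp received 5 uM rhodamine-CoA plus 12.5 uM BHQ-2-ybbR (50 mM Hepes pH 7.6, 10 mM MgCl2). Rate came from the fluorescence difference over 30 min, ex 525/em 598 nm.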
TRPV1 PAM = human TRPV1 potentiation; Q8NER1; TRPV1-expressing cells, Fluo-8 calcium influx, capsaicin EC20 potentiation; host cell line not named in the record; control for the full effect not named in the record; potentiation, % at 8.33 µM; 320,000 tested, 0.02% active; AID 540277; active means potentiation above 80%; inconclusive means 30% to 80%; inactive means below 30%; further: 0% is about no effect
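Cells expressing TRPV1 were dye-loaded with Fluo-8 and read kinetically: 10 s baseline, 3 min after compound (agonist portion), then 2 min after EC20 capsaicin (allosteric enhancer portion). Calcium-bound dye fluorescence at 480/520 nm.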
TRPML1 inh = blocks the human TRPML1 channel | TRPML1-inducible cells, Ca2+ dye fluorescence, FDSS; stronger effect = lower value; inhibition of EC80 agonist-evoked calcium signal | Q9GZU1 | 390,000 tested, 0.02% active | activity change, negative = inhibition, % (no concentration beside the values); in the data active means activity change below about -50%; inconclusive means about -30% to -50%; inactive means above about -30%;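 further: stimulus is agonist 54-4 at its EC80 concentration; on the % scale 0 is the no-effect control and ±100 the full control effect; compound concentration not given in the record; the text of the record puts the active cut at -80%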
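Tet-induced TRPML1-DL cells loaded with Ca8 no-wash calcium dye were read kinetically on FDSS. Compound addition was followed by EC80 agonist 54-4 (4 uM final); inhibition was read over 110 s.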
The depositor's hits bear a star; ? = inconclusive; / = no result given; [ ] = remark or other dose.

SMILES	ClpP mod	PINK1 expr mod	Menin-MLL FL inh	TRPML1 agonist	Sfp inh	TRPV1 PAM	TRPML1 inh
Cc1ccc(-c2nnn(CC(=O)NCCc3ccc4c(c3)OCO4)n2)o1	2.1%	-0.1%	-2.2	-0.8	12.7%	16.5	-4.0
Cn1c(=O)n(C)c2cc(N3CCOCC3)c(NS(=O)(=O)c3cccc(C#N)c3)cc21	-17.9%	3.2%	/	-0.5	/	/	3.0
O=C(N/N=C/C1CC2CCC1C2)C1CC1 (configuration not stated)	0.7%	-1.0%	/	-0.3	11.6%	7.2	5.3
CCC(=O)NC(=S)Nc1ccc(S(=O)(=O)NC2CCCCC2)cc1	0.9%	2.2%	/	-0.2	-6.7%	5.1	-17.4
CCS(=O)(=O)Nc1cc(OC)c(OC)cc1Cc1nccc2cc(OC)c(OC)cc12	/	0.8%	1.6	0.0	8.6%	-6.7	7.1
COc1ccc(S(=O)(=O)c2cn(C)c3cc(N4CCOCC4)c(F)cc3c2=O)cc1	-22.0%	-0.5%	/	-0.7	/	/	14.3
O=C(COc1ccc(S(=O)(=O)N2CCCCC2)cc1)N1CCCCCC1	31.6µM*	-2.1%	-0.1	0.0	3.6%	-9.7	-6.0
CCCCc1nc(N)c(C#N)c(-c2ccco2)c1CCC	?	/	0.1	-0.2	-3.6%	11.6	-19.9
Cc1cc(C(=O)CSc2ncccn2)c(C)n1-c1cccc(F)c1	-0.7%	-1.3%	/	0.8	-25.8%	-16.1	-12.9
COc1ccc(S(=O)(=O)N2CCCCC2)cc1NC(=O)CN(C)C1CCCCC1	0.5%	7.3%	0.4	-0.5	7.1%	-11.0	9.8
CC(=O)NC(c1cccc(F)c1)c1nc(-c2ccccc2)cs1 (configuration not stated)	-2.2%	2.2%	/	-1.1	/	/	/
CC(C)Cc1csc(NC(=O)c2ccccc2Cl)c1C(=O)O	-3.0%	1.6%	0.3	0.6	?	-8.1	-5.0
O=C(Nc1ccc2c(c1)OCCO2)C(=O)c1c[nH]c2ccccc12	1.9%	4.0%	/	1.2	?	11.0	-16.6
CC1=[N+]([O-])C(C)(C)C(c2ccc(Br)cc2)=[N+]1[O-]	-19.7%	1.2%	-0.2	1.0	-4.6%	-5.2	37.8
Fc1ccc(-c2nc3c(Cl)cc(C(F)(F)F)cn3c2Cc2cccc(Cl)c2)cc1	-27.8%	2.0%	/	0.5	/	/	/
O=C(NC1CCCC1)C(c1ccncc1)N(C(=O)c1csnn1)c1cccc(Cl)c1 (configuration not stated)	/	-0.1%	1.2	-0.6	-6.5%	7.3	3.9
CCS(=O)(=O)N1Cc2ccccc2CC1C(=O)Nc1nc2ccc(F)cc2s1 (configuration not stated)	-4.3%	5.9%	1.9	0.7	9.6%	9.4	-18.4
CC(=O)Nc1cccc(-c2csc(Nc3ccc(C)cn3)n2)c1	-10.6%	-0.1%	0.8	2.2	-25.1%	0.3	5.3
NC1=NC(=O)/C(=C/c2cn(CCC(=O)O)nc2-c2ccc(F)cc2)S1	-1.9%	1.0%	17.0	0.5	-2.4%	12.9	-16.9
O=C(Nc1cccnc1)c1ccc(-c2ccccc2)cc1	2.2%	-0.5%	-0.8	0.3	-4.6%	-2.4	4.9
CC1(C2CC2)NC(=O)N(CC(=O)Nc2ccc(Cl)c([N+](=O)[O-])c2)C1=O (configuration not stated)	-0.3%	0.1%	/	-0.1	/	-13.1	16.8
O=C1OCC2=C1C(c1ccccc1)CC(=O)N2c1cccc(F)c1 (configuration not stated)	/	1.8%	0.9	-0.4	-5.0%	5.5	-7.1
Cc1cccc(C(=O)N2N=C(c3ccc(NS(C)(=O)=O)cc3)CC2c2cccs2)c1 (configuration not stated)	-3.6%	-0.9%	4.3	2.7	-1.2%	-6.5	36.4
CCOC(=O)c1c(CC(C)C)csc1NC(=O)CCl	1.0%	2.5%	2.3	-0.8	-3.8%	2.5	-6.5
Cc1nc2nc[nH]n2c(=O)c1NS(C)(=O)=O	-0.2%	-2.1%	0.4	0.0	10.9%	-6.7	13.2

Continued.
SMILES	ClpP mod	PINK1 expr mod	Menin-MLL FL inh	TRPML1 agonist	Sfp inh	TRPV1 PAM	TRPML1 inh
COCCNC(=O)C1CCC(CNS(=O)(=O)c2c(C)cc(C)cc2C)CC1 (configuration not stated)	0.5%	-0.2%	1.6	0.5	11.2%	-2.2	3.2
COc1ccc(NS(=O)(=O)c2cc(NC(=O)c3ccc(C)s3)ccc2N2CCOCC2)cc1	/	1.4%	6.4	0.0	27.7%	16.8	-14.1
Cc1cccc(OC(=O)c2snnc2C)c1C	-2.0%	-0.6%	/	1.9	/	/	-3.8
CCN(CC)C(=O)CSc1nc2cc3c(cc2c(=O)n1CCCC(=O)NCc1ccc2c(c1)OCO2)OCO3	-1.4%	-0.8%	/	4.4	/	/	-9.7
CCCc1[nH]nc2c1C(c1ccccc1OC)C(C#N)=C(N)O2 (configuration not stated)	-3.2%	5.9%	8.4	1.1	-1.6%	-1.7	-14.1
O=C(C1CCC(Cn2c(=O)c3sccc3n(Cc3ccccc3)c2=O)CC1)N1CCOCC1 (configuration not stated)	1.5%	-0.2%	/	1.7	/	/	13.1
c1ccn2c(c1)nc1c2nc2ccccn21	-13.5%	1.7%[38.3 µM]	-2.2	-0.4	-5.6%	-7.1	1.7
O=C(NC12CC3CC(CC(C3)C1)C2)c1cncc(Br)c1	/	-0.5%	1.0	-0.4	7.2%	-10.1	4.9
COc1ccc(N2CCN(C(=O)c3ccc4nc(N5CCCCC5)sc4c3)CC2)cc1	-3.1%	0.8%	4.3	0.2	7.1%	-36.3	5.4
COc1ccccc1C=NNc1nc(C)cc(=O)[nH]1	-6.3%	-4.1%	/	-0.2	/	/	24.9
COc1ccccc1NC(=O)COc1cccnc1[N+](=O)[O-]	0.4%	0.0%	/	-1.7	/	/	-6.9

Gathered by group: the entries above containing an aryl methoxy group.
SMILES	ClpP mod	PINK1 expr mod	Menin-MLL FL inh	TRPML1 agonist	Sfp inh	TRPV1 PAM	TRPML1 inh
CCS(=O)(=O)Nc1cc(OC)c(OC)cc1Cc1nccc2cc(OC)c(OC)cc12	/	0.8%	1.6	0.0	8.6%	-6.7	7.1
COc1ccc(S(=O)(=O)c2cn(C)c3cc(N4CCOCC4)c(F)cc3c2=O)cc1	-22.0%	-0.5%	/	-0.7	/	/	14.3
COc1ccc(S(=O)(=O)N2CCCCC2)cc1NC(=O)CN(C)C1CCCCC1	0.5%	7.3%	0.4	-0.5	7.1%	-11.0	9.8
COc1ccc(NS(=O)(=O)c2cc(NC(=O)c3ccc(C)s3)ccc2N2CCOCC2)cc1	/	1.4%	6.4	0.0	27.7%	16.8	-14.1
CCCc1[nH]nc2c1C(c1ccccc1OC)C(C#N)=C(N)O2 (configuration not stated)	-3.2%	5.9%	8.4	1.1	-1.6%	-1.7	-14.1
COc1ccc(N2CCN(C(=O)c3ccc4nc(N5CCCCC5)sc4c3)CC2)cc1	-3.1%	0.8%	4.3	0.2	7.1%	-36.3	5.4
COc1ccccc1C=NNc1nc(C)cc(=O)[nH]1	-6.3%	-4.1%	/	-0.2	/	/	24.9
COc1ccccc1NC(=O)COc1cccnc1[N+](=O)[O-]	0.4%	0.0%	/	-1.7	/	/	-6.9

Screening results (PubChem)
